GIRK2 act – opens human GIRK2 potassium channels. P48051. HEK293-GIRK2 thallium flux, Thallos fluorescence. calls only for hits at 25 µM. hit rate 0.05% among 63,000. AID 1259325;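 active = among the strongest 0.2% of first-round signals and kept after retests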;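 note: first round at about 10 µM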
Target sequence (P48051 whole entry, looked up): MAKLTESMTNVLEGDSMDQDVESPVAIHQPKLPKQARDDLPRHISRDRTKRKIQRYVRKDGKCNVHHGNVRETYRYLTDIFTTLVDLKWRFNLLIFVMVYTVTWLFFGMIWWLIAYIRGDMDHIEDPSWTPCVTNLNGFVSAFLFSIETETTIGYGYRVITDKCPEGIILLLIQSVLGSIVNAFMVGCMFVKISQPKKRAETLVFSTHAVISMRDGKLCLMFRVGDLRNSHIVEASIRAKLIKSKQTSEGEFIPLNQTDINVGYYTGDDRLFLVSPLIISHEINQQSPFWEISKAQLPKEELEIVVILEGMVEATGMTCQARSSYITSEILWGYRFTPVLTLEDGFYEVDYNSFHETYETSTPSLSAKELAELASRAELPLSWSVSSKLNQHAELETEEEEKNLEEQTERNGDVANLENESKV
Calls only; i = inactive. The list is partial; the hit share may differ from the screen's.

| GIRK2 act | Compound |
| --- | --- |
| i | CCOc1ccc(NC(=O)CN2CCC(c3nc(-c4cccc(F)c4)no3)CC2)cc1 |
| i | NC(=O)Cn1nc(-c2cccs2)ccc1=O |
| i | Cc1ccc(NC(=O)Cn2nc(N3CCSCC3)c3ccccc3c2=O)cc1F |
| i | COc1ccc(Cl)cc1NC(=O)Cn1nc2cc(-c3ccccn3)nc(C)n2c1=O |
| i | COc1ccc(-n2ccnc(NC(=O)Nc3ccc(C)c(C)c3)c2=O)cc1Cl |
| i | COc1cc(NC(=O)Cn2c3ccc(F)cc3c(=O)n2C(C)(C)C)cc(OC)c1 |
| i | O=C(CN1CC(c2nc(-c3ccco3)no2)C1)N1CCCc2ccccc21 |
| i | COc1ccccc1N1CCN(CCNS(=O)(=O)c2ccc(F)c(C)c2)CC1 |
| i | O=[N+]([O-])c1ccccc1S(=O)(=O)N1CCN(c2cc(-c3ccccc3)ncn2)CC1 |
| i | COCCN(Cc1ccoc1)C(=O)COc1ccccc1 |
| i | CCn1cc(S(=O)(=O)c2cc(C)cc(C)c2)c(=O)c2cc(F)c(N3CCCCCC3)cc21 |
| i | Cc1cc(N2C(=O)C(=O)C(=C(O)c3ccc(F)cc3)C2c2cccc(O)c2)no1 (centres undefined) |
| i | CSc1nnc(C)c2cnn(-c3ccc(F)cc3)c12 |
| i | COc1ccc(S(=O)(=O)NCCOc2cccc(C(F)(F)F)c2)cc1F |
| i | O=S(=O)(NCC(O)c1ccsc1)c1ccc(OC(F)(F)F)cc1 (centres undefined) |
| i | CC(C)Sc1ncc(-c2ccc(Br)cc2)n1C |
| i | COc1ccc(CNS(=O)(=O)c2cc3c4c(c2)CCN4C(=O)CC3)cc1 |
| i | CN(C)c1ccc(-c2noc(C3CC(=O)N(c4ccc5c(c4)OCCO5)C3)n2)cc1 (centres undefined) |
| i | Cc1ccc(S(=O)(=O)N2CCCc3cc(NS(C)(=O)=O)ccc32)cc1 |
| i | O=C(Nc1nonc1-c1ccc(Cl)cc1)c1ccc(Cl)cc1 |
| i | COc1ccc(CN2CCc3nc(SCc4cccc(OC)c4)[nH]c(=O)c3C2)cc1 |
| i | CC(C)c1ccc(OCC(=O)NCCCS(=O)(=O)N2CCN(c3ccccn3)CC2)cc1 |
| i | CC1CCc2c(sc3nc(CCC(=O)N4CCCC4)[nH]c(=O)c23)C1 (centres undefined) |
| i | O=C(c1cc(C2CC2)on1)N1CCN(c2ccc(-c3noc(C(F)(F)F)n3)cn2)CC1 |
| i | Nc1nnc(SCC(=O)c2ccc(Cl)cc2Cl)s1 |
| i | COC(=O)c1cccc(Nc2c(C(=O)N3CCCCC3C)cnc3nc(C)ccc23)c1 (centres undefined) |
| i | COCCn1c(N2CCN(CCc3ccccc3)CC2)nc2c1c(=O)[nH]c(=O)n2C |
| i | O=C(Nc1ccc2c(c1)C(=O)NCC2)c1cc(Cl)ccc1Cl |
| i | Cn1c(SCc2nc(-c3ccc4c(c3)OCO4)no2)nc2cc3c(cc2c1=O)OCO3 |
| i | Cc1cccc(C)c1NS(=O)(=O)c1c(C)cc(C)c(N(C)S(C)(=O)=O)c1C |

No new results follow: entries from further up.
| GIRK2 act | Compound |
| --- | --- |
| i | CCOc1ccc(NC(=O)CN2CCC(c3nc(-c4cccc(F)c4)no3)CC2)cc1 |
| i | NC(=O)Cn1nc(-c2cccs2)ccc1=O |
| i | Cc1ccc(NC(=O)Cn2nc(N3CCSCC3)c3ccccc3c2=O)cc1F |
| i | COc1ccc(Cl)cc1NC(=O)Cn1nc2cc(-c3ccccn3)nc(C)n2c1=O |
| i | COc1ccc(-n2ccnc(NC(=O)Nc3ccc(C)c(C)c3)c2=O)cc1Cl |
| i | COc1cc(NC(=O)Cn2c3ccc(F)cc3c(=O)n2C(C)(C)C)cc(OC)c1 |
| i | O=C(CN1CC(c2nc(-c3ccco3)no2)C1)N1CCCc2ccccc21 |
| i | COc1ccccc1N1CCN(CCNS(=O)(=O)c2ccc(F)c(C)c2)CC1 |
| i | O=[N+]([O-])c1ccccc1S(=O)(=O)N1CCN(c2cc(-c3ccccc3)ncn2)CC1 |
| i | COCCN(Cc1ccoc1)C(=O)COc1ccccc1 |
| i | CCn1cc(S(=O)(=O)c2cc(C)cc(C)c2)c(=O)c2cc(F)c(N3CCCCCC3)cc21 |
| i | Cc1cc(N2C(=O)C(=O)C(=C(O)c3ccc(F)cc3)C2c2cccc(O)c2)no1 (centres undefined) |
| i | CSc1nnc(C)c2cnn(-c3ccc(F)cc3)c12 |
| i | COc1ccc(S(=O)(=O)NCCOc2cccc(C(F)(F)F)c2)cc1F |
| i | O=S(=O)(NCC(O)c1ccsc1)c1ccc(OC(F)(F)F)cc1 (centres undefined) |

Back to the main list with the 2 entries that preceded the break.
| GIRK2 act | Compound |
| --- | --- |
| i | Cn1c(SCc2nc(-c3ccc4c(c3)OCO4)no2)nc2cc3c(cc2c1=O)OCO3 |
| i | Cc1cccc(C)c1NS(=O)(=O)c1c(C)cc(C)c(N(C)S(C)(=O)=O)c1C |
| i | COc1ccc(S(=O)(=O)Nc2ccc3c(c2)N(S(C)(=O)=O)CCC3)cc1 |
| i | CCn1c(N/N=C\c2ccc(OC)c(OC)c2)nc2c1c(=O)[nH]c(=O)n2C |
| i | Cc1nc(OC(C)C)cc(N2CCN(C(=O)Nc3ccccc3)CC2)n1 |
| i | Cc1cn2c3c(=O)n(CCc4ccccc4)c(=O)n(C)c3nc2n1-c1ccccc1N |
| i | O=C(NCCC(O)C1CC1)C(=O)Nc1ccc2c(c1)OCO2 (centres undefined) |

Assay outcomes as filed in PubChem BioAssay.
